# Screens from PubChem BioAssay.
# Vif A3G: HIV-1 Vif–A3G interaction blockers – biochemical, TR-FRET, GST-Vif 1-94, biotin-A3G peptide, dose response retest, primary screen (AID 1117319). TR-FRET GST-Vif / biotin-A3G peptide binding; higher % means a stronger effect; test concentration not given here; strong numbers were not always called active. inhibition, %; hits with a dose series show IC50 in µM. 260,000 tested, 0.57% active;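 active = above the screen mean plus three standard deviations and confirmed in dose response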;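 also: Vif residues 1-94 fused to GST binding biotinylated APOBEC3G peptide 110-148; 0% = full assay without inhibitor and 100% = GST in place of GST-Vif; retest series ran down from 100 µM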
# MLL AF4-AF9 inh: MLL-AF4/AF9 protein interaction inhibition | P42568 | AlphaScreen, biotin-AF4 peptide binding to FLAG-AF9 | inhibition, % at 10 µM | 350,000 tested, 0.47% active | AID 651704;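 active = every replicate reaching a set inhibition limit, whatever the replicate mean, cut at about 25% in these data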;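 also: 0% = plate neutral control median and 100% = total signal loss; the record names both 10 and 1 µM as test concentration; the first replicate is given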
# Target sequence (P42568 whole entry, looked up): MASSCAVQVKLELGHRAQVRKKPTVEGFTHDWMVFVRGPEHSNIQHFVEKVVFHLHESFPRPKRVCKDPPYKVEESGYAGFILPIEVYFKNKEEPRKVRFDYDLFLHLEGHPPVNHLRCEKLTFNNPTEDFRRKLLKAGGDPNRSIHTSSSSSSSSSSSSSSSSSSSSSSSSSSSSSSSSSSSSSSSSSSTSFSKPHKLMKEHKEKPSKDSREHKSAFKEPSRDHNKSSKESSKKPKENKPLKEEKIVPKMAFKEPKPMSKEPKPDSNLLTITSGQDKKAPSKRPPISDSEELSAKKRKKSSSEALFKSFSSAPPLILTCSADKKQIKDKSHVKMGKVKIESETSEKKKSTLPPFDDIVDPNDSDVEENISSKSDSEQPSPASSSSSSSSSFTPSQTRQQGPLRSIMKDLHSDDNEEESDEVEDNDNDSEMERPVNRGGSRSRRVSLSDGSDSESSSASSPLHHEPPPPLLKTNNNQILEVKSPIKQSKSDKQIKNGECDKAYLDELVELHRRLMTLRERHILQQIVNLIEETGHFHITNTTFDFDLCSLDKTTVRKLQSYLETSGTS
# rRNA inh HTS: selective bacterial rRNA inhibition in E. coli; E. coli WT GFP vs humanized-ribosome RFP mutants, fluorescence, 24 h; active compounds read low; DMSO median 0, no signal -100; GFP signal change (wild-type ribosome), % (concentration not given with the values); 350,000 tested, 1.6% active;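 active = significant combined selectivity score with lowered wild-type GFP, culture density cut under 30%, mutant RFP and density less affected; inactive = any of these conditions unmet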; also: one replicate is shown; some compounds called inactive have numbers as strong as hits
# rRNA inh HTS OD600: further read-out of rRNA inh HTS, marked with its call; OD600 change, %; measured here: OD600 growth;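 optical density of the mix in the first replicate; 0 = DMSO median and -100 = no signal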
# rRNA inh HTS RFP: further read-out of rRNA inh HTS, marked with its call; RFP signal change, %; measured here: RFP humanized mutant strains;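 first replicate; 0 = DMSO median and -100 = no signal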
# * hit, by the source's call; & = joins results of further samples. These rows are one share of the data, so the mix of outcomes need not match the whole.
SMILES,Vif A3G,MLL AF4-AF9 inh,rRNA inh HTS,rRNA inh HTS OD600,rRNA inh HTS RFP
CN(C(=O)CSc1nc(C2CC2)n(-c2ccccc2)n1)C1CCS(=O)(=O)C1 (configuration not stated),12%,-13,2,3,-0.7
Cc1ccc(NC(=O)COC(=O)c2ccco2)cc1S(=O)(=O)N1CCCCC1,0%,-0.5,9,8,-0.3
CCOc1ccccc1OCCCC(=O)N1CCN(S(=O)(=O)c2ccccc2C#N)CC1,-7%,-9.0,-1,1,1.2
Cc1ccc2c(c1)=N/C(=N\c1[nH]c(O)c3ccccc13)N=2,3%,0.5,32,25,6.7
COc1ccc(CNC(=O)C(C)N2C(=O)NC3(CCCCCCC3)C2=O)cc1 (configuration not stated),3%,-18,1,-5,-0.4
CCOC(=O)c1c(C)cc2c(CO)n[nH]c(=O)c2c1C,6%,-1.6,4,11,1.2
COc1cc(C2CC(=O)Oc3cc(O)ccc32)cc(OC)c1OC (configuration not stated),2%,-2.9,2,-1,-2.9
CS(=O)(=O)N1CCC2CC1c1cc(-c3ccccc3)ccc12 (configuration not stated),2%,-2.7,-35,-57,-12
Cc1noc(C)c1NC(=O)N(C)C[C@@H]1Oc2ncc(C#CC3CC3)cc2C(=O)N([C@@H](C)CO)C[C@@H]1C,2%,0.4&-2.3&-1.0,3&7,10&13,-0.3&0.7
O=C1CSC(=S)N1N=Cc1ccc2c(c1)OCO2,-3%,-2.2,-13,5,7.3
CCOC(=O)c1c(NC(=O)COC(=O)C2CCC2)sc(C(=O)N(C)C)c1C,-3%,3.3,1,3,-2.3
N#Cc1ccc(-c2nc3ccc(Br)cn3c2Cc2ccccc2)cc1,-3%,-7.2,-40,-56,35
CCN1C(=O)[C@H]2[C@@H](c3ccc(OC)cc3)N[C@]3(CCCN(Cc4ccccc4)C3=O)[C@H]2C1=O,-4%,1.3,6,7,-2.3
COc1ccc(CNS(=O)(=O)c2ccc(F)cc2Br)cc1,-11%,-1.4,-4,-7,-7.4
CC1(C)C(CC(=O)O)CC1C(=O)O (configuration not stated),-6%,-4.9,11,16,-0.7
COc1cccc(C(=O)N2CCN(c3nc4cc(C)cc(C)c4cc3C#N)CC2)c1,-8%,-1.8,-9,2,36
O=C(Cc1ccc(Br)cc1)Nc1cccc(S(=O)(=O)N2CCCCC2)c1,-2%,-3.8,-3,-25,7.5
O=C(CCOc1ccccc1)N1CCCC(Nc2ccccc2)C1 (configuration not stated),-1%,3.3,-4,-23,-4.0
O=S(=O)(N/N=C1/CC(c2ccccc2)Oc2ccccc21)c1ccccc1 (configuration not stated),-5%,-4.1,-12*,-31*,1.0*
FC(F)C(F)(F)Oc1cccc(-c2n[nH]c(=S)n2Cc2ccccc2)c1,-2%,1.8,-54,-73,-11
CC(C)n1ncc2c(C(=O)N3CCN(S(=O)(=O)c4cccc(F)c4)CC3)cc(C3CC3)nc21,6%,-1.1,2,3,-2.8
Cc1ccc(NC(=O)C(C)N2C(=O)c3ccccc3C2=O)cc1S(=O)(=O)N1CCOCC1 (configuration not stated),14%,1.4,-3,-10,-0.7
CC(C)(C)N(Cc1ccccc1)C(=O)COC(=O)CCN1C(=O)C2CC=CCC2C1=O (configuration not stated),6%,-2.6,-2,-7,1.1
O=C(c1ccccc1)c1ccc(Oc2ccc([N+](=O)[O-])cc2[N+](=O)[O-])cc1,-3%,1.6,-18,-7,-2.9
N#Cc1cnc2nc1NCCCCCCC2,-2%,-4.8,1,-10,-2.2
SMILES,Vif A3G,MLL AF4-AF9 inh,rRNA inh HTS,rRNA inh HTS OD600,rRNA inh HTS RFP
COc1ccc(C(=O)N(C)[C@H]2C[C@H]3c4[nH]c5ccccc5c4CCN3C(=O)[C@H]2CO)cc1,-1%,2.7,-4,0,5.1
Cc1cc(NC(=O)/C(C#N)=C\c2ccc(-c3ccc(SC(F)F)cc3)o2)n(-c2ccccc2)n1,-4%,-1.1,0,12,-1.6
CC(=O)N(C(C)=O)c1ccc(Oc2ccc(Oc3ccc(N(C(C)=O)C(C)=O)cc3)cc2)cc1,-5%,-2.5,1,-6,-4.9
FC(F)(F)C1=Nc2cccc3cccc(c23)N1,5.9µM*,-6.8,-12,23,-9.0
CN(c1ccccc1)S(=O)(=O)c1cccc(NC(=O)CCNC(=O)c2ccco2)c1,-2%,-2.8,-17,-34,6.1
O=C(Nc1cc(Cl)ccc1-n1cncn1)c1ccccc1OC(F)F,2%,-27,-2,-7,-2.2
CC(=O)c1ccccc1NC(=O)COC(=O)C1COc2ccccc2O1 (configuration not stated),-16%,4.1,10,6,-1.5
COc1ccc(CNC(=O)c2cccc(S(=O)(=O)N3CCN(c4ccc(F)cc4)CC3)c2)cc1,4%,-0.8,1,-7,0.8
CCN(C(=O)Cn1cc(C(F)(F)F)ccc1=O)C1CCS(=O)(=O)C1 (configuration not stated),-9%,0.2,8,9,3.0
CCCCN1C(=O)C(CC(=O)NC2CCCCC2)CC(C(=O)N(C(C)C)C(C)C)=C1C (configuration not stated),-3%,-1.4,-10,-17,4.1
COc1ccc(CN2CCC[C@]3(N[C@H](c4ccc(OC)cc4)[C@@H]4C(=O)N(Cc5ccccc5)C(=O)[C@@H]43)C2=O)cc1,-1%,2.2,-6,-4,-6.0
COc1cc(C2c3cc4c(cc3C(O)C3COCC23)OCO4)cc(OC)c1OC (configuration not stated),4%,0.6,0,-4,3.8
CC(Sc1nnc(C2CC2)n1C1CC1)C(=O)NCc1cccs1 (configuration not stated),3%,-1.4,14,10,5.0
CCCCOC(=O)C1=C(C)N(C)C(=O)NC1c1cc2c(cc1Br)OCO2 (configuration not stated),-6%,-0.4,-15,-27,-2.5
Cc1ccc(NC(=O)CN2C(=O)S/C(=C/c3ccc(O)c([N+](=O)[O-])c3)C2=O)cc1C,22%,7.4,-9,-9,-5.7
COc1ccc2cc(C3=CC(=O)CCC3)ccc2c1,-4%,-33,-1,5,3.9
Cc1ccc(S(=O)(=O)NN=Cc2ccccc2Cl)cc1,3%,-1.1,4,-23,0.0
O=C(NNC1CCN(Cc2ccccc2)CC1)c1ccccc1,-6%,0.3,9,14,-1.5
CC(C)C[C@H](NC(=O)c1[nH]cnc1C(=O)Nc1ccccc1F)C(=O)OC(C)(C)C,-4%,3.8,0,-4,-1.8
CCN1C(=O)C(C)C=C(C)C=C1C (configuration not stated),5%,-0.9,8,18,-2.0
CC(Oc1ccc(C#N)cc1)C(=O)Nc1ccc(-n2cnnn2)cc1 (configuration not stated),0%,3.3,-2,11,-2.3
CC/C(C)=C1/NC(=O)NC1=O,-4%,-10,17,23,3.8
CC(CCc1ccccn1)C(=O)c1ccccc1 (configuration not stated),2%,-5.9,-1,1,3.0
CN(C)c1ccc(Cc2cc3c(O)ccc(O)c3cc(Cc3ccc(N(C)C)cc3)c2=O)cc1,0.87µM*,1.6,-17,44,32
O=C1COC(c2ccccc2O)=NN1CCCl,0%,-5.4,3,0,-0.5
SMILES,Vif A3G,MLL AF4-AF9 inh,rRNA inh HTS,rRNA inh HTS OD600,rRNA inh HTS RFP
CC(=O)N(C)C[C@H]1Oc2ncc(Br)cc2C(=O)N([C@H](C)CO)C[C@@H]1C,2%,-4.5&-3.2,2&2,3&10,-1.8&-1.6
NC(=O)C1(Nc2ccc(C(=O)O)cc2)CCCC1,-1%,-0.4,6,9,-5.7
Cc1ccccc1S(=O)(=O)N(C)C[C@@H]1OCc2ccccc2-c2c(n(C)c3ccccc23)C(=O)N([C@H](C)CO)C[C@@H]1C,5%,0.4,6&1,14&11,-3.8&0.9
c1ccc(OCCN2CCNCC2)cc1,0%,0.5,14,13,1.6
O=S1(=O)CCN(Cc2cccnc2)CC1,2%,2.1,26,17,-0.4
COc1cccc(C(=O)NNC(=O)c2cccc3ccccc23)c1,-4%,0.2,-2,-6,-0.6
CCOc1ccc(S(=O)(=O)c2ccc(C)cc2)c2c1no[n+]2[O-],4%,-1.7,5,16,4.8
CNC[C@H]1Oc2c(NS(=O)(=O)c3ccc(OC)cc3)cccc2C(=O)N([C@H](C)CO)C[C@@H]1C,-3%,-1.4&-0.8,-1&7,0&3,-2.5&0.6
O=C(CN1C(=O)NC2(CCCCCCC2)C1=O)NCc1ccccc1Cl,-5%,2.6,-8,-14,-1.8
O=C(Nc1ccc(Cl)c(S(=O)(=O)N2CCCC2)c1)c1nn(CCO)c(=O)c2ccccc12,-8%,6.7,-12,-22,8.9
COC(=O)C1=C(C)NC(C)=C(C(=O)OC)C1C(=O)OCC(=O)N1CCCCC1C (configuration not stated),1%,-2.0,11,9,-1.8
CN(CC(=O)Nc1cccc(F)c1)C(=O)Cc1ccsc1,-5%,-0.6,-1,-1,-3.8
Cc1ccc(NC(=O)COC(=O)c2cc(=O)c3cc(F)ccc3o2)cc1,-3%,2.5,13,13,1.9
COc1ccc(S(=O)(=O)N(C)C[C@H]2Oc3ncc(-c4ccncc4)cc3C(=O)N([C@@H](C)CO)C[C@@H]2C)cc1,4%,-1.8&-1.8&0.4,2&-7,-5&-6,-2.4&2.1
CC(C)C[C@H]1CN([C@@H](CC(C)C)CN2CCC[C@@H]2CN2C(=O)C(=O)NC[C@@H]2Cc2ccccc2)C(=O)C(=O)N1CCc1ccccc1,-7%,-3.0,-7,-24,4.1
CCN(CC)Cc1cc(Nc2c3ccccc3nc3c4ccccc4n(C)c23)cc(CN(CC)CC)c1O,11µM*,55*,-23,-30,-0.6
C[C@@H]1CCCCO[C@H](CN(C)S(=O)(=O)c2cccs2)[C@@H](C)CN([C@H](C)CO)C(=O)c2cc(NC(=O)Nc3ccc4c(c3)OCO4)ccc2O1,-10%,0.3&6.8,24&-2,14&2,5.2&-1.4
Cc1cn([C@H]2C[C@H](O)[C@@H](CCC(=O)NC(c3ccccc3)c3ccccc3)O2)c(=O)[nH]c1=O,3%,-1.7,4,14,-2.5
CCCCc1c(O)nc(SCC(=O)N2CCOCC2)n(-c2ccc(C)cc2)c1=O,-5%,-1.9,4,5,-1.1
O=C1OC2(c3ccccc31)c1ccccc1-c1ccccc12,-7%,1.5,-8,-20,-11
O=[N+]([O-])c1ccc(NN=Cc2cccc3ccccc23)cc1,-6%,1.6,-7,3,-0.1
COc1ccc(NC(=O)c2ccc(NC(=O)CN3CCN(c4ccccc4OC)CC3)cc2)cc1,-8%,-0.3,3,11,0.3
O=C(CC(CC(=O)c1ccccc1)c1ccccn1)c1ccccc1,1%,4.5,-18,-48,-6.7
C[C@@H](NC(=O)c1ncn2c1c(=O)[nH]c1cccnc12)c1ccccc1,0%,-8.7,4,3,-4.6
O=[N+]([O-])c1ccc(NN=Cc2cccc([N+](=O)[O-])c2)cc1,-5%,-1.1,2,6,-4.1

# Gathered by group, those above with a COOH group.
SMILES,Vif A3G,MLL AF4-AF9 inh,rRNA inh HTS,rRNA inh HTS OD600,rRNA inh HTS RFP
CC1(C)C(CC(=O)O)CC1C(=O)O (configuration not stated),-6%,-4.9,11,16,-0.7
NC(=O)C1(Nc2ccc(C(=O)O)cc2)CCCC1,-1%,-0.4,6,9,-5.7

# Of the compounds above, 11 have fluorine:
SMILES,Vif A3G,MLL AF4-AF9 inh,rRNA inh HTS,rRNA inh HTS OD600,rRNA inh HTS RFP
COc1ccc(CNS(=O)(=O)c2ccc(F)cc2Br)cc1,-11%,-1.4,-4,-7,-7.4
FC(F)C(F)(F)Oc1cccc(-c2n[nH]c(=S)n2Cc2ccccc2)c1,-2%,1.8,-54,-73,-11
CC(C)n1ncc2c(C(=O)N3CCN(S(=O)(=O)c4cccc(F)c4)CC3)cc(C3CC3)nc21,6%,-1.1,2,3,-2.8
Cc1cc(NC(=O)/C(C#N)=C\c2ccc(-c3ccc(SC(F)F)cc3)o2)n(-c2ccccc2)n1,-4%,-1.1,0,12,-1.6
FC(F)(F)C1=Nc2cccc3cccc(c23)N1,5.9µM*,-6.8,-12,23,-9.0
O=C(Nc1cc(Cl)ccc1-n1cncn1)c1ccccc1OC(F)F,2%,-27,-2,-7,-2.2
COc1ccc(CNC(=O)c2cccc(S(=O)(=O)N3CCN(c4ccc(F)cc4)CC3)c2)cc1,4%,-0.8,1,-7,0.8
CCN(C(=O)Cn1cc(C(F)(F)F)ccc1=O)C1CCS(=O)(=O)C1 (configuration not stated),-9%,0.2,8,9,3.0
CC(C)C[C@H](NC(=O)c1[nH]cnc1C(=O)Nc1ccccc1F)C(=O)OC(C)(C)C,-4%,3.8,0,-4,-1.8
CN(CC(=O)Nc1cccc(F)c1)C(=O)Cc1ccsc1,-5%,-0.6,-1,-1,-3.8
Cc1ccc(NC(=O)COC(=O)c2cc(=O)c3cc(F)ccc3o2)cc1,-3%,2.5,13,13,1.9
